# NPYLR7 agonist: agonists of mosquito NPYLR7 receptor, primary screen, cell-based, Aedes aegypti, calcium fluorescence, mosquito biting behavior | HEK293T NPYLR7/Galpha15, GCaMP6s calcium fluorescence | Aedes aegypti neuropeptide Y-like receptor 7 (NPYLR7) | activation, % at 10 µM | hit rate 0.15% among 270,000; in the data active means activation above about 40%;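 further: 0% = vehicle and 100% = reference agonist at the receptor; some compounds past the cut are filed as inactive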
# NPYLR7 agonist max-min: further read-out of NPYLR7 agonist, marked with its call; activation, %; measured here: Max-Min RFU normalised activation; some inactives read as strong as hits;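 span of the calcium signal over five minutes; 0% = vehicle and 100% = native peptide agonist; compound fluorescence can raise it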
# * hit, by the source's call; & = joins results of further samples. An excerpt. The share of hits here may be higher or lower than overall.
# Values run as follows: NPYLR7 agonist	NPYLR7 agonist max-min
> COC(=O)c1ccc(CNC(=O)CN2CCCC2c2c(C)noc2C)o1 (stereo unspecified)
→ -4	-12
> N#CC1(c2nc3ccccc3[nH]2)Cc2c(F)cccc2N2CCCCC21 (stereo unspecified)
→ 0	5
> Cc1cccc(N2CCCn3c2nc2c3c(=O)[nH]c(=O)n2C)c1C
→ -4	-8
> CN(C)C(=O)C(Oc1cc(Cl)c(Cl)cc1Cl)c1ccccc1 (stereo unspecified)
→ 8	6
> O=C(Cc1noc(C2(c3ccccc3)CC2)n1)NC1CCCCC1
→ -1	-1
> COc1cccc(-c2ccc(=O)n(CC(N)=O)n2)c1
→ 12	3
> O=C(Cn1cnc2ccccc21)N1CC[C@@H](c2ccc3c(c2)OCO3)[C@H](O)C1
→ 21	10
> CCCN(C(=O)c1ccc(C(C)(C)C)cc1)C(C)c1nc2ccccc2c(=O)n1-c1ccccc1CC (stereo unspecified)
→ -5	1
> O=C(O)c1cnn2c(-c3ccccc3F)ccnc12
→ 19	8
> Cc1cccc(COC(CN2CCN(C(=O)NCc3ccc(Cl)cc3)CC2)c2ccc(Cl)cc2)c1 (stereo unspecified)
→ 5	1
> COc1ccc(N=C2SC(C(=O)Nc3ccccc3OC)CC(=O)N2C)cc1 (stereo unspecified)
→ -3	-4
> CS(=O)(=O)c1ccccc1S(=O)(=O)N1CCN(Cc2cc(=O)c(OCc3ccc(C(F)(F)F)cc3)co2)CC1
→ 0	5
> CC(C)Cn1c(CCC(N)=O)nnc1SCCc1ccncc1
→ 6	1
> O=c1c2ccccc2nc(-c2ccccc2I)n1Cc1ccco1
→ 2	-2
> Cc1ccc(C)c(NC(=S)NN=CC2=CCC3CC2C3(C)C)c1 (stereo unspecified)
→ 0	6
> Cc1nonc1N1CCN(Cc2nc(-c3ccco3)oc2C)CC1
→ 19	3
> FC(F)(F)c1ccc2c(c1)n(Cc1ccccc1)c1[n+]2CCCCC1
→ 9	8
> CCOC(=O)c1ccc(NC(=O)c2cccn(OCc3ccccc3)c2=O)cc1
→ 13	12
> O=[N+]([O-])c1cc(C(F)(F)F)ccc1Sc1nnc(CCCO)n1-c1ccccc1
→ 2	0
> Cc1cccc(C)c1N1CC(c2nc3ccccc3[nH]2)CC1=O (stereo unspecified)
→ 8	15
> O=C(Nc1ccccc1)N1CCN2C[C@@H](CO)[C@H](c3ccccc3)[C@H]2C1
→ 3	1
> COCCN(CC(=O)Nc1nc(CC(=O)N2CCN(c3cccc(C(F)(F)F)c3)CC2)cs1)C(=O)c1ccc(F)cc1
→ 2	2
> CC(C)CN(CC(C)C)C(=O)CSc1nnc2n(Cc3ccccc3)c(=O)c3ccccc3n12
→ 2	3
> Cc1ccc(NC(=O)CSc2ccc3nnc(CCNC(=O)c4ccc(F)cc4)n3n2)cc1
→ 5	-10
> O=C(c1ccccc1N1CCC(NS(=O)(=O)c2ccccc2)CC1)N1CCOCC1
→ 17	14
> Cc1ccc(NC(=O)C2(C)CCN2C(C)C)cc1C (stereo unspecified)
→ 2	1
> O=C(Nc1ccc2nc[nH]c2c1)c1ccccc1C1CCNC1 (stereo unspecified)
→ 2	1
> COc1c[nH]c(C(=O)N2CCC3(CC2)C(=O)N(C)c2ccccc23)cc1=O
→ 1	1
> COCc1cc(N2CCN(c3ccc(OC)cc3)CC2)nc(SCc2cccc(C(=O)NCC3CCCO3)c2)n1 (stereo unspecified)
→ -3	-1
> S=c1n(CN2CCSCC2)nc(CN2CCCCC2)n1-c1ccccc1
→ -7	13
> C=CCc1cc(/C=N\n2cnnc2)cc(OC)c1OCC(=O)O
→ -14	-21
> CCN1CCCC1C1CCCN1C(=O)c1ccc(C(=O)NC)nc1 (stereo unspecified)
→ 0	1
> O=C(C1CCCO1)N1CCN(Cc2nc3sc4c(c3c(=O)[nH]2)CCCC4)CC1 (stereo unspecified)
→ 2	-1
> COc1ccc(N2CCN(C(=O)c3nnn(-c4ccccc4)c3CSc3ncccn3)CC2)cc1
→ -1	-5
> O=C1CCc2cc(S(=O)(=O)N3C[C@@H]4[C@H](C3)[C@H]3CC[C@@H]4O3)ccc2N1
→ -2	-3
> CC(C)(C)c1ccc(/C=N\NC(=O)CSc2nc3ccccc3[nH]2)cc1
→ 1	9
> O=c1c2nnn(-c3cccc(F)c3)c2ncn1Cc1cccnc1
→ -6	-9
> O=C1CC(c2ccc(-n3cncn3)cc2)c2cn[nH]c2N1 (stereo unspecified)
→ 26	12
> CCOC(=O)[C@H]1C[C@]2(CCCCN(CCOC(C)=O)C2=O)N(C(=O)c2ccno2)[C@H]1c1ccccc1
→ -4	3
> CSc1ccc(CN(CCO)Cc2ccc3c(C)cc(=O)oc3c2)cc1
→ 7	-3
> CC(NC(=O)c1c(O)c2ccccc2n(C)c1=O)c1ccccc1 (stereo unspecified)
→ 7	7
> COc1ccc(C(=O)N2CCN(C(C(=O)Nc3cc(OC)cc(OC)c3)C3CCCC3)CC2)cc1 (stereo unspecified)
→ -1	6
> CCN(C(=O)CSc1nnc(C2CC2)n1C)C1=CCCCC1
→ 10	5
> COC(=O)CN1CCN(c2ccc(NC(=O)c3ccco3)cc2)CC1
→ 4	3
> COc1ccc(C(=O)Oc2coc(CSc3nc(C)cs3)cc2=O)cc1OC
→ -11	-8
> O=C(NCCN1CCCCC1)c1csc(CSc2nnc(-c3ccncc3)n2-c2ccccc2F)n1
→ -10	-2
> CCOC(=O)C(c1cc(OC)ccc1OC)C1C=CC(NC(=O)c2sccc2Cl)C1 (stereo unspecified)
→ 2	-1
> CCn1c(C)c(C(=O)CN(C(=O)c2cccc(C(F)(F)F)c2)C2CCCCC2)c(C)c1C(=O)OC
→ -12	-5
> Cc1cn2c3c(=O)n(CC=Cc4ccccc4)c(=O)n(C)c3nc2n1CCCl
→ 2	4
> CC(=O)N1CCN(C(=O)C2(C)CCN2Cc2ccc(-c3ccccc3)o2)CC1 (stereo unspecified)
→ -5	-6
> O=C(c1c(F)c(F)c(F)c(F)c1F)N1CCN(c2nc3nccc(-c4ccc(C5CCCCC5)cc4)n3n2)CC1
→ 6	4
> COc1ccc(-c2cc(C(=O)Nc3cccc(C)c3)c3ccccc3n2)cc1
→ -9	-12
> O=c1c2ccccc2c(=O)c2c1c(O)cc1oc3ccccc3[nH]c12
→ -2	-6
> Cc1cc(N(Cc2ccc(C(N)=O)cc2)C2CC2)nc(C)n1
→ 3&-3	2&-3
> COc1ccccc1Nc1nc(-c2ccccc2)c2cc(Br)ccc2n1
→ -5	-11
> CCn1ncc(C(=O)NCc2noc(-c3c(F)cccc3F)n2)c1C
→ 2	0
> CC(=O)Nc1cnc(-c2ccccc2Cl)cn1
→ 4	1
> COc1ccc(-c2nccn2Cc2scnc2-c2ccccc2)cc1O
→ -1	-4
> COc1cn(CC(=O)Nc2ccc(C)cc2)c(CSc2ncccn2)cc1=O
→ -6	-10
> CC1CN(C(=O)Cn2nc(C(C)C)c3cnn(C(C)(C)C)c3c2=O)CC(C)O1 (stereo unspecified)
→ -5	-5

# More records
# Values run as follows: NPYLR7 agonist	NPYLR7 agonist max-min
> Cc1ccc(Cc2nnc(SCC(=O)Nc3c(C)cccc3C)[nH]c2=O)cc1
→ -5	-5
> CCOC(=O)N1CCN(Cc2cn[nH]c2-c2ccc(-c3ccccc3)cc2)CC1
→ -2	-5
> COCc1c(C(=O)N2CC3C[C@@H]4CC2C[C@H](C3)C4)noc1C
→ 23	18
> N#CCCN(CCC#N)S(=O)(=O)c1ccccc1
→ 3	2
> Cc1ccccc1OCCNc1nc(-c2cccnc2)nc2c1cnn2C
→ 2	3
> COCc1ccccc1C(=O)N1CCC(Nc2ccc(F)cc2)CC1
→ 6	4
> Cc1ccc(CN(CCN(C)C)C(=O)c2cn(C)c3ccccc23)s1
→ -6	-4
> Cc1ccsc1CCNC(=O)c1ccc(C#CC(C)(C)O)o1
→ 3	1
> CC(C)NC(=O)c1ccccc1Nc1c([N+](=O)[O-])cc(C(F)(F)F)cc1[N+](=O)[O-]
→ 0	-3
> CCOc1cc(Nc2ccc(NC(=O)Nc3ccc(C)cc3)cc2)nc(C)n1
→ 16	4
> COc1cc(CN2CCC3(CC2)CC3C(=O)N(C)CCOc2ccc(C)cc2)cc(OC)c1OC (stereo unspecified)
→ 22	7
> OCC1(CCc2ccccc2)CCN(c2nccc(N3CCC(O)C3)n2)CC1 (stereo unspecified)
→ -3	4
> c1coc(C(CNCc2ccc(N3CCCCC3)cc2)N2CCCC2)c1 (stereo unspecified)
→ -6	-4
> CCn1nc(CC(C)C)cc1C(=O)N1CCC2(CC1)C(=O)Nc1ccccc12
→ 5	2
> O=C(Cn1nc2c(c1NC(=O)c1ccc(C(F)(F)F)cc1)CSC2)NCc1ccco1
→ -4	2

# Complete entries from above. Values in the order: NPYLR7 agonist | NPYLR7 agonist max-min
# Listed for Cc1ccc(Cc2nnc(SCC(=O)Nc3c(C)cccc3C)[nH]c2=O)cc1 : -5 | -5
# Listed for CCOC(=O)N1CCN(Cc2cn[nH]c2-c2ccc(-c3ccccc3)cc2)CC1 : -2 | -5
# Listed for Cc1ccc(CN(CCN(C)C)C(=O)c2cn(C)c3ccccc23)s1 : -6 | -4
# Listed for c1coc(C(CNCc2ccc(N3CCCCC3)cc2)N2CCCC2)c1 (stereo unspecified) : -6 | -4

# Continued.
# Values run as follows: NPYLR7 agonist	NPYLR7 agonist max-min
> COc1cccc(C2=NC(=Cc3cc(OC)c(OC)cc3OC)C(=O)O2)c1
→ 0	1
> CCOc1ccc(CN(Cc2cccc3c2OCO3)C2CC2)cc1
→ -2	-6
> COc1ccc(F)cc1CSc1nnc(NC(C)C)s1
→ 12	5
> O=C(Nc1cccc(-n2cccn2)c1)C1CCCN(Cc2cn[nH]c2-c2ccccc2)C1 (stereo unspecified)
→ 2	1
> COc1cccc(CN(CC(O)COCC(C)C)CC2CC(c3ccccc3F)=NO2)c1 (stereo unspecified)
→ -2	2
> c1ccc(Cn2cc(Cn3nnc(-c4ccccc4)n3)nn2)cc1
→ 1	-1
> O=C(c1cc(=O)c2cccc(F)c2[nH]1)N1CCOC(C(F)(F)F)C1 (stereo unspecified)
→ 14	12
> CCCCn1ccc2nc3ccn(-c4n[nH]c(C)n4)c(=O)c3cc2c1=O
→ 2	2
> O=S(=O)(Nc1ccc(-c2ccc3nnc(-c4ccncc4)n3n2)cc1)c1ccccc1
→ -13	-11
> CCC(CC)C(=O)N1[C@@H](c2ccccc2)[C@@H](C(=O)O)C[C@]12CCCCN(C)C2=O
→ 2	8
> CNC(=O)CN(C)c1nccc(C(F)(F)F)n1
→ 1	0
> CCc1cc(-c2ccccc2CO)nc(N2CCOCC2)n1
→ 11	8
> Fc1ccc(-c2n[nH]c(=S)n2-c2ccccc2)cc1
→ 9	6
> O=C(Cn1nc2c(c1NC(=O)CSc1ccncc1)CSC2)NCc1ccco1
→ -5	3
> O=C(CC(c1ccccc1)c1ccco1)N1CCCn2cncc2C1 (stereo unspecified)
→ 26	19
> O=S(=O)(c1ccc(F)cc1F)N1CCN(c2nccc(-c3ccc(Oc4ccccc4)cc3)n2)CC1
→ 7	-3

# 25 successive compounds already listed, for reference:
# Values run as follows: NPYLR7 agonist	NPYLR7 agonist max-min
> Cc1ccc(CN(CCN(C)C)C(=O)c2cn(C)c3ccccc23)s1
→ -6	-4
> Cc1ccsc1CCNC(=O)c1ccc(C#CC(C)(C)O)o1
→ 3	1
> CC(C)NC(=O)c1ccccc1Nc1c([N+](=O)[O-])cc(C(F)(F)F)cc1[N+](=O)[O-]
→ 0	-3
> CCOc1cc(Nc2ccc(NC(=O)Nc3ccc(C)cc3)cc2)nc(C)n1
→ 16	4
> COc1cc(CN2CCC3(CC2)CC3C(=O)N(C)CCOc2ccc(C)cc2)cc(OC)c1OC (stereo unspecified)
→ 22	7
> OCC1(CCc2ccccc2)CCN(c2nccc(N3CCC(O)C3)n2)CC1 (stereo unspecified)
→ -3	4
> c1coc(C(CNCc2ccc(N3CCCCC3)cc2)N2CCCC2)c1 (stereo unspecified)
→ -6	-4
> CCn1nc(CC(C)C)cc1C(=O)N1CCC2(CC1)C(=O)Nc1ccccc12
→ 5	2
> O=C(Cn1nc2c(c1NC(=O)c1ccc(C(F)(F)F)cc1)CSC2)NCc1ccco1
→ -4	2
> COc1cccc(C2=NC(=Cc3cc(OC)c(OC)cc3OC)C(=O)O2)c1
→ 0	1
> CCOc1ccc(CN(Cc2cccc3c2OCO3)C2CC2)cc1
→ -2	-6
> COc1ccc(F)cc1CSc1nnc(NC(C)C)s1
→ 12	5
> O=C(Nc1cccc(-n2cccn2)c1)C1CCCN(Cc2cn[nH]c2-c2ccccc2)C1 (stereo unspecified)
→ 2	1
> COc1cccc(CN(CC(O)COCC(C)C)CC2CC(c3ccccc3F)=NO2)c1 (stereo unspecified)
→ -2	2
> c1ccc(Cn2cc(Cn3nnc(-c4ccccc4)n3)nn2)cc1
→ 1	-1
> O=C(c1cc(=O)c2cccc(F)c2[nH]1)N1CCOC(C(F)(F)F)C1 (stereo unspecified)
→ 14	12
> CCCCn1ccc2nc3ccn(-c4n[nH]c(C)n4)c(=O)c3cc2c1=O
→ 2	2
> O=S(=O)(Nc1ccc(-c2ccc3nnc(-c4ccncc4)n3n2)cc1)c1ccccc1
→ -13	-11
> CCC(CC)C(=O)N1[C@@H](c2ccccc2)[C@@H](C(=O)O)C[C@]12CCCCN(C)C2=O
→ 2	8
> CNC(=O)CN(C)c1nccc(C(F)(F)F)n1
→ 1	0
> CCc1cc(-c2ccccc2CO)nc(N2CCOCC2)n1
→ 11	8
> Fc1ccc(-c2n[nH]c(=S)n2-c2ccccc2)cc1
→ 9	6
> O=C(Cn1nc2c(c1NC(=O)CSc1ccncc1)CSC2)NCc1ccco1
→ -5	3
> O=C(CC(c1ccccc1)c1ccco1)N1CCCn2cncc2C1 (stereo unspecified)
→ 26	19
> O=S(=O)(c1ccc(F)cc1F)N1CCN(c2nccc(-c3ccc(Oc4ccccc4)cc3)n2)CC1
→ 7	-3
